HSD17B inh: blocks hydroxysteroid 17-beta dehydrogenase activity | 75,000 tested, 7.6% active | recombinant HSD17B10, NADH fluorescence kinetic; many of its hits are not listed in these tables | Potency, µM (titrated, usually from 57.1 µM), for the others: at the highest dose activity change, negative = inhibition, most hits filed as inhibitors; active = well fitted inhibition curve with a large enough effect; inconclusive = small, poorly fitted or top-dose-only effect; inactive = no such curve, though single readings can be large or run the other way;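 also: the protocol describes HADH2 (HSD17B10) and not the HSD17B4 of the title; nearly all actives have a fitted effect of over 70% in size; most hits overshoot -100% by far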
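Activity followed as NADH fluorescence increase (ex 360, em 450 nm) every 30 seconds for 4 min, using final 90 uM beta-hydroxybutyryl CoA and 1 mM NAD+. Recombinant His-tagged enzyme, 20 nM, pH 9.0 Tris buffer, 15 min compound preincubation.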
* = called active by the depositor; ? = inconclusive; & = joins results of further samples; [ ] = remark or other dose. % is scaled to controls: 0 for no effect and ±100 for the full control effect; potency is read from the fitted curve at half-maximal effect. A portion of the library; rates above refer to the full screens.

SMILES	HSD17B inh
Oc1c(Br)c(Br)c(Br)c(Br)c1Br	10µM*
COc1cccc(C(C#N)N2CCCCC2)c1O (centres undefined)	?
Cc1cc(NC(=O)COC(=O)c2c(C)nn(Cc3ccccc3Cl)c2Cl)no1	7%
CN(C)C1=NP(N(C)C)(N(C)C)=NC(c2ccccc2)=N1	8%
C[C@H](CCC(=O)O)[C@H]1CC[C@H]2[C@@H]3CC[C@@H]4C[C@H](O)CC[C@]4(C)[C@H]3CC[C@]12C	?
Cc1ccc(N)cc1Cl	1%
CCC1CCCCN1P(=O)(c1ccc(C)o1)C(C)(C)C (centres undefined)	6%
CC(C)C#N	4%
O=C(O)c1cc[c]([Hg][S]c2ncnc3nc[nH]c23)cc1	0.2µM*
O=P(O)(O)C12CC3CC(CC(C3)C1)C2	4%

Another view of part of the listing above:
Cc1ccc(N)cc1Cl
  HSD17B inh: 1%

CCC1CCCCN1P(=O)(c1ccc(C)o1)C(C)(C)C (centres undefined)
  HSD17B inh: 6%

CC(C)C#N
  HSD17B inh: 4%

O=C(O)c1cc[c]([Hg][S]c2ncnc3nc[nH]c23)cc1
  HSD17B inh: 0.2µM*

Other records follow:
SMILES	HSD17B inh
O=C1C2CC=CCC2C(=O)N1SC(Cl)(Cl)Cl (centres undefined)	?
C[C@]1(O)CC[C@H]2[C@@H]3CCC4=CC(=O)CC[C@]4(C)[C@@]3(F)[C@@H](O)C[C@@]21C	-4%
Cc1cc(S(=O)(=O)NCc2ccccc2)ccc1OCC(=O)N1CCN(C)CC1	2%
Cc1cc2c(C(F)(F)F)cc(=O)oc2c2c1NCCC2	-3%
COc1ccc(C(=O)N2CCOCC2)cc1S(=O)(=O)N1CCC(C)CC1	3%
Cc1cc(S(=O)(=O)NCC(C)C)ccc1OCC(=O)N1CCN(Cc2ccccc2)CC1	-1%
COc1ccc(CCN(C)Cc2c(F)cccc2F)cc1OC	5%
Brc1c(Br)c(Br)c2n[nH]nc2c1Br	?
CC(=O)OC1CC[C@]2(C)C(CCC3C2CC[C@]2(C)C(C4=CC(=O)OC4)C(OC(C)=O)CC32O)C1 (some centres undefined)	5%
N[C@@H](Cn1cc(I)c(=O)[nH]c1=O)C(=O)O	-5%
COC(=O)c1cc2c(s1)=NC=NP=2(N1CCOCC1)N1CCOCC1	?
CC(C)CN1CC2(CCN(C(=O)c3ccncc3)CC2)C1	4%
COc1ccc(CCN)cc1O	5%
C1=C(c2c[nH]c3ccccc23)CCNC1	?
CN(C)P1(N(C)C)=Nc2c(c(N)nn2C)C(c2ccccc2)=N1	-5%
O=P(O)(O)C(Cl)(Cl)P(=O)(O)O	3%
c1ccc(P(c2ccccc2)c2ccccc2)cc1	-2%
CN(C)C1=NC(N(C)C)=NP(N(C)C)(N(C)C)=N1	3%
Nc1cccc2c(N)cccc12	32µM*
CN(C)CS/C(N)=N/[C@H](O)C(Cl)(Cl)Cl	-17%[11.4 µM]
CCC(=NCCCN(CC)CC)c1c(O)n(-c2ccccc2)c(=O)[nH]c1=O	-5%
CC(C)(C)c1nc(N2CCN(C(=O)c3ccco3)CC2)c2nnn(Cc3ccccc3Cl)c2n1	5%
C[C@@]12CC[C@H]3[C@H](CCC4=CC(=O)CC[C@H]43)[C@H]1CC[C@H]2OC1(O)C(=O)c2ccccc2C1=O	41%[activator][11.4 µM]
Cc1c(O)c(O)cc2c1CC=C1[C@]3(C)CC[C@]4(C)CC[C@@](C)(C(=O)O)CC4[C@]3(C)CC[C@]12C (some centres undefined)	?
CN1CCC(N2CC3CC(C2)c2cccc(=O)n2C3)CC1 (centres undefined)	0%
O=C1NC(=O)C2(Cc3ccccc3N3CCCC32)C(=O)N1c1cccc(Cl)c1 (centres undefined)	?
CN1[C@@H]2CC[C@H]1CC(OC(=O)N1Cc3ccccc3NC1=O)C2 (some centres undefined)	9%
O=C(Oc1ccc(S(=O)(=O)F)cc1F)c1ccccc1Cl	0%[11.4 µM]
CN1C(=O)C(Cc2cccs2)C(=O)N(C)C1=O	-6%
O=[N+]([O-])C(Br)Br	-20%
COC(=O)c1ccc(COc2cc(C)cc3oc(=O)c4c(c23)CCCC4)o1	32µM*
O=C1CC(c2ccccc2)CC(O)=C1C=NCCN1CCN(C(=O)Cc2ccccc2)CC1 (centres undefined)	-1%
COc1ccccc1CN1CC[C@@]2(CCCN(C(=O)Oc3ccccc3)C2)C1	1%
C[C@H]1[C@@H](O)[C@@H](C)/C=C\C=CCC\C=C/C=C\C=C/C=C[C@@H](O[C@H]2O[C@@H](C)[C@@H](O)[C@@H](N)[C@@H]2O)C[C@@H]2O[C@@](O)(C[C@@H](O)[C@H]2C(=O)O)C[C@@H](O)[C@@H](O)CC[C@@H](O)C[C@@H](O)C[C@@H](O)CC(=O)O[C@H]1C	-6%[25.6 µM]
O=c1cccc2n1CC1CC2CN(c2ncnc3c2cnn3-c2ccc(Cl)cc2)C1 (centres undefined)	-4%
O=C(c1cc(=O)[nH]c2ccc(Br)cc12)N1CCC2(CC1)OCCO2	-5%
CC(C)Oc1ccc(Cc2c(O)[nH]c(=O)[nH]c2=O)cc1	-5%
CCC1CN2CCC1CC2C(Oc1cc2ccccc2c2ccccc12)c1ccnc2ccc(O)cc12 (centres undefined)	1%[11.4 µM]
Nc1ccccc1Cl	-4%
CC(=O)CC1CCCCN1 (centres undefined)	1%
C(=NC1CCCCC1)=NC1CCCCC1	4%
Cc1ncc(CN2CC=C(c3ccccc3)CC2)c(N)n1	7%
CS(=O)(=O)N1CCCC(C(=O)N2CCC3(CC2)OCCO3)C1 (centres undefined)	5%
CC(=O)Nc1ccccc1OP1(=O)COc2ccccc2OC1	16%
NNC(=O)c1ccc(O)cc1	5%
Clc1cncc(N2CCNCC2)n1	40µM*
O=C(NCP(=O)(O)O)c1cccnc1	11%[11.4 µM]
CCN1C[C@@]2(COC)CC[C@H](OC)[C@]34[C@@H]1[C@]1(OCO[C@@]15C[C@@H](OC)C1C[C@H]3[C@H]5[C@@H]1OC)[C@H](O)[C@@H]24	1%[25.6 µM]
NCCc1c[nH]c2ccccc12	0%&4%
COc1ccc2c3c1O[C@@H]1C(=O)CC[C@@]4(O)[C@@H](C2)N(CC2CC2)CC[C@]314	-6%

Further compounds:
SMILES	HSD17B inh
c1nc[nH]n1	5%
Oc1ccc(Br)cc1CN1CCN(c2ccccc2)CC1	-8%
c1ccc(CCCCN2CCC(c3ccccc3)CC2)cc1	16%
COc1ccc2c(c1)c(CCN1CCOCC1)c(C)n2C(=O)c1cccc(Cl)c1Cl	10%
CCOC(=O)N(CC)c1ccc(C(O)(C(=O)OCC)C(F)(F)F)cc1 (centres undefined)	3%
C[C@@H]1[C@@H](C)N1C[C@H](O)Cn1ccnc1[N+](=O)[O-] (some centres undefined)	2%[11.4 µM]
C[C@@]12CC(c3ccoc3)OC(=O)C1CC[C@@]1(C)C2C2C=C[C@@]1(O)C(=O)O2 (some centres undefined)	-7%
CC1CN=C(Nc2cccc3ccccc23)S1 (centres undefined)	-30%
C[C@]12[C@H](O)CC3C(CC[C@@H]4C[C@@H](O)CC[C@]34C)[C@@]1(O)CC[C@@H]2C1=CC(=O)OC1 (some centres undefined)	2%
CCC(C)C(=O)OC1C(O)C2C(CN3CC(C)CCC3[C@]2(C)O)C2C[C@]34O[C@@]5(O)C(OC(=O)C(C)(O)C(C)O)CCC3(C)C5C(OC(C)=O)C(OC(C)=O)C4[C@@]21O (some centres undefined)	-5%
CCN(CC)CCO[C@H]1CC[C@@]2(C)C(=CC[C@@H]3[C@H]2CC[C@]2(C)C(=O)CC[C@H]32)C1	9%
CC(=O)Nc1ccc(OC(=O)N(C)C)cc1	-4%
O[C@H]1C2CCC1C(N1CCCCC1)CC2 (some centres undefined)	-16%
CCN1CCN(Cc2cc(Br)cc(OC)c2O)CC1	4%
O=C1CCCC2C3CC(CN12)C1CCCCN1C3 (centres undefined)	-6%
CCCN1CCC2(CC1)NC(CO)(CO)CO2	0%
CC(C)(Cl)[N+](=O)[O-]	1%
CCCCCCOc1ccc(CN2CCN(C)CC2)cc1	2%
N#CCc1ccccc1	-1%
Cc1noc(C)c1C(=O)N1CCC2(CCCN(CC(C)C)C2)CC1	4%

In the list so far, 6 contain bromine.
SMILES	HSD17B inh
Oc1c(Br)c(Br)c(Br)c(Br)c1Br	10µM*
Brc1c(Br)c(Br)c2n[nH]nc2c1Br	?
O=[N+]([O-])C(Br)Br	-20%
O=C(c1cc(=O)[nH]c2ccc(Br)cc12)N1CCC2(CC1)OCCO2	-5%
Oc1ccc(Br)cc1CN1CCN(c2ccccc2)CC1	-8%
CCN1CCN(Cc2cc(Br)cc(OC)c2O)CC1	4%

Gathered by group: the compounds so far with a COOH group.
SMILES	HSD17B inh
C[C@H](CCC(=O)O)[C@H]1CC[C@H]2[C@@H]3CC[C@@H]4C[C@H](O)CC[C@]4(C)[C@H]3CC[C@]12C	?
O=C(O)c1cc[c]([Hg][S]c2ncnc3nc[nH]c23)cc1	0.2µM*
N[C@@H](Cn1cc(I)c(=O)[nH]c1=O)C(=O)O	-5%
Cc1c(O)c(O)cc2c1CC=C1[C@]3(C)CC[C@]4(C)CC[C@@](C)(C(=O)O)CC4[C@]3(C)CC[C@]12C (some centres undefined)	?
C[C@H]1[C@@H](O)[C@@H](C)/C=C\C=CCC\C=C/C=C\C=C/C=C[C@@H](O[C@H]2O[C@@H](C)[C@@H](O)[C@@H](N)[C@@H]2O)C[C@@H]2O[C@@](O)(C[C@@H](O)[C@H]2C(=O)O)C[C@@H](O)[C@@H](O)CC[C@@H](O)C[C@@H](O)C[C@@H](O)CC(=O)O[C@H]1C	-6%[25.6 µM]

More records follow:
SMILES	HSD17B inh
C#CCOC(=O)C1=CCCN(C)C1	-4%&-3%
ClC1=CCC2CN(CCN3CCCCC3)CC2C1 (centres undefined)	-1%
CCN(N=O)C(N)=O	-1%
CC(=O)N1CC2CC(C1)c1cccc(=O)n1C2 (centres undefined)	13%
CCCCn1c(O)c(C=NC2CC3CCC2(C)C3(C)C)c(=O)[nH]c1=O (centres undefined)	-19%
COc1cc2c(c(OC)c1OC)-c1ccc(O)c(=O)cc1C(NC(C)=O)CC2 (centres undefined)	2%
NC[C@@H](O)CSP(=O)(O)O	10%[11.4 µM]
CN1CCN(Cc2ccccc2C(F)(F)F)CC1	6%
NC(=O)CN1C2CCC1CC(NC(=O)C1CC1)C2 (centres undefined)	11%
COC1=CC(=O)OC(CCc2ccc3c(c2)OCO3)C1 (centres undefined)	0%
NC[C@H](O)c1ccc(O)cc1	8%[25.6 µM]
CCCCn1c(O)c(C(C)=NC(C)c2ccccc2)c(=O)[nH]c1=O (centres undefined)	-4%
COc1ccc(C[C@@H]2NC[C@H](O)[C@@H]2OC(C)=O)cc1	2%[25.6 µM]
COC(=O)C1C2c3ccccc3OC1(C)N=c1s/c(=C/c3cn(C)nc3C)c(=O)n12 (centres undefined)	-7%
OC[C@@H]1CCCN2CCCC[C@@H]12	5%
Cc1cc(-c2ccc(N)c(C)c2)ccc1N	-8%
COC(=O)CC1NC2CCCCC2NC1=O (centres undefined)	8%
O=P(O)(O)c1ccccc1 (tested in a mixture with another compound)	2%[11.4 µM]
CCOC(=O)c1c(C)c(C(=O)N2CCC3(CC2)OCCO3)c(C)n1CC	-1%
CCCCCCOC(=O)c1ccccc1N	?
CCC(=NCc1ccc2c(c1)OCO2)c1c(O)n(C)c(=O)n(C)c1=O	3%
CN(C)c1ccc(/C=C2\CCCN=C2c2cccnc2)cc1	?
C=CCN1C[C@H](C)N([C@H](c2ccc(C(=O)N(CC)CC)cc2)c2cccc(OC)c2)C[C@H]1C	4%
CCOC(=O)CC1=C(C(=O)OCC)C2(C(=O)N1)C(C(=O)OC)=C(N)Oc1ccccc12 (centres undefined)	-8%

Bioassay records (PubChem)
